Screening data deposited in PubChem by National Center for Advancing Translational Sciences (NCATS).
StopGo FLuc: FMDV 2A StopGo reporter, firefly signal. HEK cells with a luciferase reporter of 2A StopGo recoding. Potency, µM (titrated, usually from 57.5 µM), for the others: at the top dose signal change, negative = less light. 120,000 compounds, 0.23% hits. AID 1745856; active = well fitted falling curve with a large enough effect; inconclusive = small, poorly fitted or top-dose-only effect; inactive = no such curve, though single readings can be large or run the other way; further: nearly all actives have a fitted effect of over 60% in size; overnight with compound
StopGo RLuc: lowers the Renilla signal of an FMDV 2A StopGo reporter. AID 1745857. HEK cells with a luciferase reporter of 2A StopGo recoding. 120,000 compounds, 0.32% hits. Potency, µM (doses to about 57.5 µM), for inactives: top-dose signal change, negative = less light; active means well fitted falling curve with a large enough effect; inconclusive means small, poorly fitted or top-dose-only effect; inactive means no such curve, though single readings can be large or run the other way; further: nearly all actives have a fitted effect of over 55% in size; overnight with compound
* hit, by the source's call; ? = inconclusive; [ ] = dose if it differs, or a comment. On the % scale 0 is the no-effect control and ±100 the full control effect; potency means the concentration at half of the fitted maximal effect. A portion of the library; rates above refer to the full screens.

SMILES | StopGo FLuc | StopGo RLuc
Cc1ccc(C(=O)CC(NCCO)C(=O)O)cc1 (stereo not given) | -7% | -15%
CC(NC(=O)/C=C/c1ccc(Cl)cc1)C12CC3CC(CC(C3)C1)C2 (stereo not given) | -21% | -30%
CC(=O)Nc1cccc(NC(=O)CC2(Cc3nc4ccccc4s3)CCCC2)c1 | ? | ?
CN(C)C(=S)SCC#N | 17% | 12%
COc1cc(N)c(Cl)cc1C(=O)OCc1ccc(C(C)(C)C)cc1 | 9% | -11%
CCCCCC(=O)N/N=C/c1cccnc1 | 0% | 6%
CCCCCCCCCCOC(=O)C[N+](C)(C)Cc1ccccc1 | ? | ?
CCN(CC)c1ccc(/C=N/NS(=O)(=O)c2ccc(Cl)cc2)cc1 | 16% | 329%[activator]
COc1cccc(-c2cc(C(=O)Nc3c(C)nn(Cc4ccccc4Cl)c3C)no2)c1 | -21% | -5%
O=C1c2[nH]nc(-c3ccccc3)c2C(c2ccccc2)N1c1cccc(C(F)(F)F)c1 (stereo not given) | ? | ?
O=C(COc1ccccc1[N+](=O)[O-])N1CCN(CCc2ccccn2)CC1 | -2% | -11%
CCOc1ccc(NC(C)=O)cc1S(=O)(=O)Nc1ccccc1-c1nnc2n1CCCCC2 | 0% | -1%
COC(=O)CNC(=O)C(C)(C)c1ccccc1 | 4% | 3%
CCOc1ccc(-c2cc3c(=O)n(Cc4nc(-c5ccc(OC(C)C)cc5)oc4C)ccn3n2)cc1Cl | 34%[activator] | -9%
CCOc1ccc(N(CC(=O)Nc2ccc(F)cc2F)S(=O)(=O)c2c(C)[nH]c(=O)[nH]c2=O)cc1 | -11% | -10%
CCOc1ccccc1NC(=O)Cn1ncc2c(=O)oc3ccc(C)cc3c21 | -10% | -7%
CC(OC(=O)c1cc2cc(F)ccc2s1)C(=O)N1CCNC1=O (stereo not given) | 58%[activator] | -6%
CCOc1ccccc1C(=O)Nc1nc2c(s1)CC(C)CC2 (stereo not given) | 90%[activator] | -5%
O=C(O)c1cccc2c1C(=O)C(CC1CCCO1)N2 (stereo not given) | 21% | 18%
Cc1ccc(CSc2oc(-c3cccs3)nc2S(=O)(=O)c2ccccc2)cc1 | -11% | 13%
O=C(CCc1ncc(-c2ccc(Cl)cc2)o1)N1CCC(Cc2ccccc2)CC1 | 3% | -7%
CSc1ccc(-c2nc3cnccn3c2NC2CCCCC2)cc1 | 33%[activator] | 7%
CCCOc1ccc(CNC(=O)C2=C(c3ccccc3)c3cc(Cl)ccc3S(=O)(=O)N2C)cc1 | -7% | -2%
CCOc1ccc(-c2cc3nc(C4CCN(C(=O)OC(C)(C)C)CC4)c(C(=O)Nc4ccc(C)c(F)c4)cn3n2)cc1 | -17% | -10%
CC1=C(C(=O)Nc2cccnc2)C(c2cccc(Br)c2)n2nc(SCc3ccccc3)nc2N1 (stereo not given) | 1% | -8%
CCN(Cc1cccc(C)c1)C(=O)c1csc(S(N)(=O)=O)c1 | -15% | -13%
CS(=O)(=O)N1CCN(c2ccc(NCc3ccccc3)nn2)CC1 | 0% | 0%
NC(=O)c1ccc(NC(=O)c2ccccc2CSc2nc3ccccc3o2)cc1 | 10% | -13%
Cc1cccc(CSc2cn(CC(=O)N3CCCC3)c3ccccc23)c1 | 119%[activator] | 34%[activator]
O=C(OCc1ccc(Cl)cc1Cl)C1CCC1 | 0% | -5%
CCSc1nnc2c(n1)OC(c1ccc(C)s1)Nc1ccccc1-2 (stereo not given) | 0% | 4%
CCc1ccc(CN(Cc2ccco2)C(=O)c2ccccc2)cc1 | 6% | 37%[activator]
CNS(=O)(=O)c1ccc(C(=O)NCC2(c3ccccc3)CC2)cc1 | 30% | 9%
COc1ccc(NCc2cccn2-c2nnc(N3CCCCC3)s2)cc1OC | -15% | 34%[activator]
CCc1nn2c(=O)cc(COC(=O)c3ccc(NC(=O)COc4ccc(C)cc4)cc3)nc2s1 | 30%[activator] | 0%
CC1CCN(C(=O)CN2c3ccc(C(C)C)cc3-c3ccccc3S2(=O)=O)CC1 | 82%[activator] | -7%
CCOc1ccccc1OCCC(=O)Nc1cccc2cccnc12 | 31%[activator] | 13%
CCCN1C(=O)C(Cc2nc3ccccc3c(=O)n2CC)c2cc(Br)ccc21 (stereo not given) | 8% | -14%
Cc1cccc(CSc2ncc(Cl)c(C(=O)Nc3nc4ccc(F)cc4s3)n2)c1 | -17% | -15%
CC(=O)Nc1ccc(NC(=O)CN2C(=O)CCc3cc(S(=O)(=O)N4CCCCC4)ccc32)cc1 | -15% | -3%
O=C(c1cnc(N2CCOCC2)c2ccccc12)N1CCN(c2ccc(F)cc2)CC1 | -29% | 36%[activator]
O=C(CCCCn1c(=O)c2ccccc2n(Cc2cccc(F)c2)c1=O)NCc1ccc2c(c1)OCO2 | -13% | 0%
COc1ccc(NC(=O)CCS(=O)(=O)c2nc(-c3ccc4c(c3)OCO4)cc(C(F)(F)F)n2)cc1OC | -15% | -3%
Cc1ccc(C)c(Oc2ccc(CNC(=O)c3nccnc3N)cn2)c1 | ? | ?
CCC(C)c1ccccc1NC(=O)c1cc(C)nc2ccccc12 (stereo not given) | -6% | -4%
CSc1nnc2c(n1)OC(c1ccc3c(c1)OCO3)N(C(C)=O)c1ccccc1-2 (stereo not given) | -1% | 8%
CC1CCN(S(=O)(=O)c2cn(CC(=O)Nc3ccc(F)cc3)c(=O)c3ccccc23)CC1 | -5% | 12%
CC(C)(C)C1CCC(C(=O)OCC(=O)c2ccc(Cl)c(Cl)c2)CC1 (stereo not given) | 22% | -5%
CCc1ccccc1NC(=O)CN(c1ccc(OC)cc1)S(=O)(=O)c1c(C)n[nH]c1C | 50%[activator] | 63%[activator]
CCOc1ccc(CCNC(=O)C2CCN(C(=O)N3CC(CC)Oc4ccc(C)cc43)CC2)cc1 (stereo not given) | ? | -16%
O=C(Cc1ccc(N2CCCC2=O)cc1)N[C@@H](Cc1ccccc1)c1nc2ccccc2[nH]1 | 77%[activator] | 9%
N#CC1(NC(=O)CN(CCCO)CC(F)(F)F)CCCCCC1 | -11% | -2%
N#Cc1c(N)n[nH]c1CCCNC(=O)c1ccc(-c2ccccc2)cc1 | 0% | 20%
O=S1(=O)c2ccccc2C(O)C(Cc2ccncc2)N1CCO (stereo not given) | 11% | 6%
CCN(CC)c1cc(C)c2cc(NC(=O)/C=C/c3cc(OC)c(OC)c(OC)c3)ccc2n1 | -18% | -7%
CCc1ccc2oc(-c3cc(NC(=O)C(C)C)cc(C)c3O)nc2c1 | 5% | -8%
c1ccc(-c2nc(-c3ccncc3)n[nH]2)nc1 | 10% | 107%[activator]
Cc1nn2c(ncc3c(=O)[nH]ccc32)c1-c1ccc(F)cc1 | 93%[activator] | -6%
COCCn1c(=O)c2c(nc(-n3nc(C)cc3C)n2Cc2ccccc2)n(C)c1=O | 9% | 12%
Cc1cccc(CC(=O)N2CC(=O)Nc3ccc(C)cc3C2c2ccc(F)cc2)c1 (stereo not given) | -23% | 57%[activator]

A different layout for part of the listing above:
> O=S1(=O)c2ccccc2C(O)C(Cc2ccncc2)N1CCO (stereo not given)
  StopGo FLuc = 11%	StopGo RLuc = 6%
> CCN(CC)c1cc(C)c2cc(NC(=O)/C=C/c3cc(OC)c(OC)c(OC)c3)ccc2n1
  StopGo FLuc = -18%	StopGo RLuc = -7%
> CCc1ccc2oc(-c3cc(NC(=O)C(C)C)cc(C)c3O)nc2c1
  StopGo FLuc = 5%	StopGo RLuc = -8%
> c1ccc(-c2nc(-c3ccncc3)n[nH]2)nc1
  StopGo FLuc = 10%	StopGo RLuc = 107%[activator]

Continued:
SMILES | StopGo FLuc | StopGo RLuc
COc1ccc(CNC(=O)CN2C(=O)COc3ccc(S(=O)(=O)N4CCC(C)CC4)cc32)cc1 | -24% | 15%
Cc1cc(CNC(=O)NCc2coc(-c3cccs3)n2)ccc1F | 21% | 3%
CC(Nc1ccc(-c2nc(-c3ccco3)no2)cc1[N+](=O)[O-])c1ccccc1 (stereo not given) | 86%[activator] | -1%
O=C(O)C(CCCCCCCCCCCO)C(=O)O | 23% | 7%
CCCCNC(=O)c1cccc(N)c1 | 16% | 1%
CCOc1ccc(NC(=O)CC2C(=O)N(c3ccc(Cl)cc3)C(=O)N2Cc2cccs2)cc1 (stereo not given) | -20% | 6%
Cc1ccc(-c2nc(CS(=O)(=O)CC(=O)NCc3ccc(Cl)cc3)c(C)o2)cc1 | -19% | -22%
Cc1ccccc1NC(=O)CSC1=NS(=O)(=O)c2ccccc2N1Cc1ccccc1 | -14% | -16%
CC(=O)Nc1ccc(NC(=O)CSCc2nc3ccccc3c(=O)[nH]2)cc1 | -5% | -10%
COc1ccc(NC(=O)c2cnc(SC)nc2C(F)(F)F)cc1OC | 14% | 8%
O=C(CCC1N=C2c3ccccc3N=C(SCc3ccc(F)cc3)N2C1=O)NCCc1ccccc1 (stereo not given) | -11% | -1%
COc1ccc(CN2CC3=C(C2=O)C(c2ccccc2C)NC(=O)N3)cc1 (stereo not given) | -11% | -13%
Cc1ccc(NC(=O)CN2CCC(C(=O)N3CCCCCC3)CC2)cc1 | -9% | -9%
COc1ccc(S(=O)(=O)N2CCc3ccccc32)cc1C(=O)N1CCN(c2ccncc2)CC1 | -14% | -19%
O=c1[nH]c(SCc2ccccc2)nc2c1CCCC2 | 2% | 6%

Arranged by length of the SMILES (low to high): 6 of the compounds above
SMILES | StopGo FLuc | StopGo RLuc
O=c1[nH]c(SCc2ccccc2)nc2c1CCCC2 | 2% | 6%
COc1ccc(CN2CC3=C(C2=O)C(c2ccccc2C)NC(=O)N3)cc1 (stereo not given) | -11% | -13%
CC(=O)Nc1ccc(NC(=O)CSCc2nc3ccccc3c(=O)[nH]2)cc1 | -5% | -10%
O=C(CCC1N=C2c3ccccc3N=C(SCc3ccc(F)cc3)N2C1=O)NCCc1ccccc1 (stereo not given) | -11% | -1%
COc1ccc(S(=O)(=O)N2CCc3ccccc32)cc1C(=O)N1CCN(c2ccncc2)CC1 | -14% | -19%
COc1ccc(CNC(=O)CN2C(=O)COc3ccc(S(=O)(=O)N4CCC(C)CC4)cc32)cc1 | -24% | 15%

Next section
SMILES | StopGo FLuc | StopGo RLuc
Cc1ccc(N2CC(C)Cn3c2nc2c3c(=O)n(CC(=O)O)c(=O)n2C)cc1 (stereo not given) | -12% | -15%
Cc1nc(-c2ccc(S(=O)(=O)Nc3ccccc3Cl)cc2)co1 | 11% | 49%[activator]
COC(=O)C1=C(N)Oc2cc(C)n(Cc3ccc4c(c3)OCO4)c(=O)c2C1c1ccccc1F (stereo not given) | 24% | 53%[activator]
CCOCCCNC(=O)CSCc1nc(-c2ccc(C)cc2)oc1C | 9% | 9%
Cc1cc(N2CCOCC2)nc(Nc2ccc(NC(=O)CCc3ccccc3)cc2)n1 | 5µM* | 4µM*
CCCNc1nc2ccccc2nc1C(=O)Nc1ccc(CC)cc1 | 4% | -1%
O=C(Nc1ccc(CN2CCOCC2)cc1)Nc1ccc2c(c1)OCCO2 | 61%[activator] | -7%
Cc1cc(C)n(-c2nc3ccccc3nc2Nc2cccc(C(F)(F)F)c2)n1 | -10% | -16%
Cc1ccc(C(=O)C(C)Sc2nnnn2C)cc1 (stereo not given) | 137%[activator] | -8%
O=C(CC1C(=O)N(C2CCCCC2)c2nc3ccccc3n21)Nc1ccc(F)c(F)c1 (stereo not given) | -2% | 28%
N#Cc1nc(-c2ccco2)oc1N1CCN(Cc2ccc(Br)cc2)CC1 | ? | ?
CCCc1c(C)nc2ncnn2c1Nc1ccc(CC)cc1 | ? | ?
CC1(C)O[C@H]2[C@@H](O1)[C@@H](C(=O)O)O[C@@H]1OC(C)(C)O[C@@H]12 | 18% | 2%
COc1ccc(CC(=O)NCc2ccc3c(c2)CCN3C(=O)c2ccccc2)cc1OC | -12% | -13%
CC(Sc1nc(-c2ccccc2)c(-c2ccccc2)o1)C(=O)NC(N)=O (stereo not given) | -1% | 63%[activator]
Cc1ccc(CNC(=O)Cc2csc(-c3ccccn3)n2)cc1F | -1% | -6%
CCc1ccc(C2=C(C)C(=NCC(=O)Nc3cccc(Cl)c3C)NS2(=O)=O)cc1 | 3% | 48%[activator]
CC(C)NC(=O)CSc1ncc(-c2ccc(F)cc2)o1 | 127%[activator] | 0%
CCOc1ccc(CNC(=O)c2ncoc2-c2ccc(C)s2)cc1OC | ? | ?
CCCCC1CCC(C(=O)N2CC(=O)Nc3ccc(F)cc3C2c2ccc(F)cc2)CC1 (stereo not given) | -13% | 3%
O=C(Cn1c(=O)c2c(ncn2C2CCCC2)n(Cc2ccccc2)c1=O)NCc1ccc(F)cc1 | 22% | 0%
CCCCn1c(=O)n(CC(O)COc2cc(C)ccc2C)c(=O)c2c1ncn2C1CCCC1 (stereo not given) | -20% | -11%
CCOc1ccc(-c2cc(NC(=O)c3cccc(Cl)c3)c(C(=O)OC)s2)cc1 | 14% | 5%
Cc1cc(=O)oc2cc(OCC(=O)NC3CC(C)(C)NC(C)(C)C3)ccc12 | -2% | -22%
